Screening data (PubChem)
Yeast UUG start = yeast start codon fidelity modulation; S. cerevisiae UUG-firefly luciferase reporter, luminescence/redox ratio; activity score, % at 18.7 µM; hit rate 0.13% among 350,000; AID 602363;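 active = replicate mean at a twofold rise or more, about +100% in these data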;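 note: firefly luciferase made from a UUG start codon reports start codon fidelity; reporter light over untreated wells divided by growth signal over untreated wells; some hits fall short of that in this replicate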
Env fusion inh = HIV envelope-mediated fusion inhibition. HeLa-JRFL Env/CEM21 cell fusion, luciferase. inhibition, % at 12.3 µM. hit rate 1.1% among 360,000. AID 651610;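 active = mean replicate inhibition score of at least 50 and every replicate individually at or above 50; inconclusive = only one of the two criteria met; inactive = mean below 50 and not all replicates reaching 50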;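 note: 0% = plate neutral controls and 100% = maraviroc near 300 nM; one replicate is shown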
MT1-MMP act inh = blocks activation of human MT1-MMP. P50281. HT1080 RFP-PRO-GFP cells, GFP/RFP ratio fluorescence, overnight; percent of plate control window, DMSO zero. GFP/RFP ratio change, % at 20 µM. hit rate 0.061% among 360,000. AID 651647;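 active = GFP/RFP ratio change of at least 30% with cell ATP level not reduced by more than half and red fluorescence within 50% of control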; note: strong numbers were not always called active
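Assay system: HT1080 cells carrying an RFP-PRO-GFP reporter | Dosing: Single dose of 20 µM compound, 1% DMSO final | Incubation: Cells overnight before dosing, compound overnight, 37 °C, 5% CO2 | Evaluation: GFP/RFP fluorescence ratio | Control set: DMSO and RFP-L50D-GFP cell wells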
PABP polyA inh = PABP-poly(A) binding inhibition; P11940; hit rate 1% among 290,000; inhibition, % at 35 µM; AID 2014; PABP-poly(A) RNA binding, fluorescence polarization;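 active = 50% or more with normal probe brightness, or confirmed in later tests; inconclusive = above 50% with abnormal brightness, or retests that disagree; inactive = below 50% or failed in later tests; about a fifth of its hits are not listed in these tables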;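 note: calls also rest on retests at 20 µM and on dose response follow-up; controls were probe without protein and protein plus probe with vehicle; some compounds called inactive have numbers as strong as hits; many hits fall short of the cut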
Target sequence (P11940 whole entry, looked up): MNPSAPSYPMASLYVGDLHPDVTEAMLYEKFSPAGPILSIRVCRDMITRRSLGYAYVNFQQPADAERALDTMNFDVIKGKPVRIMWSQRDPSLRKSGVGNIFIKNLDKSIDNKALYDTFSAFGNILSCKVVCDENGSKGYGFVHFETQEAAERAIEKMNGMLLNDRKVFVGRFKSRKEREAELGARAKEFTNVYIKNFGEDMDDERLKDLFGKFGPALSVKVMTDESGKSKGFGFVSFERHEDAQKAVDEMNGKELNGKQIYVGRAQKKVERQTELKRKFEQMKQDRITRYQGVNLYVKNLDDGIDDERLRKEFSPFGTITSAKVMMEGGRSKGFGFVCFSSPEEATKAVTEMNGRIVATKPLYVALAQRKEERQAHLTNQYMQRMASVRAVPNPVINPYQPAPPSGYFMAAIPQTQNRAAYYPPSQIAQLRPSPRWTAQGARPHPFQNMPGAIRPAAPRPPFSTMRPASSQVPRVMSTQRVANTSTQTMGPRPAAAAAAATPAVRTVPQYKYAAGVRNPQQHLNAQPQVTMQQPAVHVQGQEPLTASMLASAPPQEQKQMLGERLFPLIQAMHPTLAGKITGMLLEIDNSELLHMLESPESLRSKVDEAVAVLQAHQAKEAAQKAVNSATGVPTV
eIF4H inh = inhibitors of RNA binding by human eIF4H. Q15056. eIF4H fluorescence polarization binding assay. inhibition, % at 35 µM. hit rate 0.94% among 290,000;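 active = 50% or more with normal probe brightness, or confirmed in later tests; inconclusive = above 50% with abnormal brightness, or retests that disagree; inactive = below 50% or failed in later tests; about a fifth of its hits are not listed in these tables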;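 note: calls also rest on retests at 20 µM and on dose response follow-up; 0% = protein and probe with vehicle and 100% = probe without protein; strong numbers were not always called active; many hits fall short of the cut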
CSC inhib = blocks cancer stem cells | cancer stem cell-like cells viability, luminescence | inhibition, % at 7.5 µM | hit rate 1.1% among 300,000;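 active = mean at 75% or more and at least half the replicates too; inconclusive = mean and replicates disagree; tested in HMLE shEcad cells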;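 note: 0% = median of negative and 100% = median of positive control wells; the first replicate is given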
Rce1 inhib = yeast Ras-converting enzyme inhibition; Q03530; yeast membranes, quenched prenylated peptide cleavage fluorescence; calls only; hit rate 0.27% among 290,000; AID 2563;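 active = fall in fluorescence gain of 50% or more versus controls, with final raw signal at or below 3038400; inconclusive = same 50% fall but final raw signal above 3038400; inactive = fall in fluorescence gain under 50%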;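 note: plate controls were neutral control wells for no effect and wells lacking membranes for full effect; tested at 10 µM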
eIF4H inh retest = also measured in eIF4H inh; calls as there; inhibition, %; compound at 20 µM; confirmation average;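 mean of two retest wells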
PABP polyA inh retest = second read-out of PABP polyA inh, no call of its own (marks repeat the call); inhibition, %; compound at 20 µM; confirmation repeats;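 mean of two retest wells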
MT1-MMP act inh RFP = further read-out of MT1-MMP act inh, marked with its call; RFP signal change, %; measured here: RFP expression control read;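 0 = vehicle wells; hits needed this value within 50% of zero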
An asterisk follows results filed as active; i = inactive; u = inconclusive; x = not tested or not shown; & = joins results of further samples.

SMILES	Yeast UUG start	Env fusion inh	MT1-MMP act inh	MT1-MMP act inh RFP	PABP polyA inh	eIF4H inh	CSC inhib	Rce1 inhib	others
CCCC(O)(CCC)C(=O)NNc1ccccc1	-14	x	2	5	6	-4	-4	i
O=C(Nc1ccccc1)/C(=C\c1ccncc1)NC(=O)c1ccccc1	-26	-45	1	0	1	-10	-7	i
CN(C)CCNC(=O)CCCNC(=O)Cn1cnc2sc3c(c2c1=O)CCCC3	0	-27	-3	-2	-13	-12	-4	i
O=C(Nc1ncc2c(n1)CC(c1ccccc1)CC2=O)c1ccco1 (centres undefined)	-7	x	3	4	-11	17	26	i
Cc1ccc(Cn2nc(C)c(NC(=O)CSc3n[nH]c(C)c3[N+](=O)[O-])c2C)cc1	x	28	-5	-7	21	8	-13	i
CCOC(=O)CN(c1ccccn1)S(=O)(=O)c1ccc(OC)cc1	x	0	3	4	12	-2	2	i
CN(CC(=O)NC(c1ccccc1)c1ccccc1)Cc1nc2ccccc2c(=O)[nH]1	-5	x	5	2	-10	1	x	i
O=C(c1cccs1)N1C[C@H](n2cc(-c3ccc(F)cc3)nn2)[C@@H](O)C[C@@H]1c1ccc(Cl)cc1	1	-86	0	2	x	x	x	x
C=C1c2cc(CC)ccc2NC(=O)N1c1ccc(C)cc1	11	-85	-5	3	16	8	-3	i
NS(=O)(=O)c1ccc(CNC(=O)Cn2nc(C(F)F)cc2C(F)F)cc1	-6	x	0	3	x	x	-7	x
CCc1ccccc1-n1cnc2cc(C(=O)O)ccc21	-17	x	4	6	1	2	-3	i
CCOc1ccc(N2C(=O)CC(Cc3ccc(Br)cc3)C2=O)cc1 (centres undefined)	0	9	2	0	-13	12	-3	i
CCCCCn1c(=O)[nH]c2cc(C(=O)NCc3ccc4c(c3)OCO4)ccc2c1=O	-12	-5	-3	0	-9	-11	x	i
Cc1cccc(OCC(=O)N(Cc2ccc(C)o2)C2CCS(=O)(=O)C2)c1 (centres undefined)	-9	-2	-2	3	11	3	-2	i
COc1ccc(S(=O)(=O)n2nc(OC(=O)c3c(-c4ccccc4Cl)noc3C)cc2N)cc1	-6	-42	-6	-4	13	7	14	i
CCOCCc1nnc(NC(=O)c2cc(OC)c(OC)cc2[N+](=O)[O-])s1	x	-10	1	4	3	1	-14	i
CN(C)CCSc1nc2cc(S(=O)(=O)N3CCCCC3)ccc2o1	-12	x	-1	1	x	x	16	x
CCc1ccc2ncc(C(=O)c3ccccc3)c(N3CCOCC3)c2c1	-16	x	0	0	12	-7	-4	i
NS(=O)(=O)c1ccc(NC(=S)NC(=O)/C=C/c2ccco2)cc1	x	27	-11	4	4	85*	-6	i	eIF4H inh retest=59*;PABP polyA inh retest=19
O=C(COC(=O)c1ccc(O)cc1)NC1CCCCCC1	-1	x	-4	-2	x	x	-6	x
FC(F)(F)c1cccc(CNc2ncccc2-c2nc3cc(Cl)ccc3o2)c1	-19	-25	-1	2	-1	-2	16	i
CC(=O)Nc1ccc(C(=O)OCC(=O)N2CCC(Cc3ccccc3)CC2)cc1	6	6	4	-1	x	x	-14	x
CC(C)C(=O)Nc1ccc(C(=O)Nc2nnc(C(C)(C)C)s2)cc1	x	5	4	1	6	-7	11	i
CN=C1c2cc3cc(OC)ccc3n2CCN1Cc1ccccc1	-2	-12	3	-8	-14	-14	x	i
Cc1cccc(OCCCCCn2ccnc2)c1C	-23	41	7	-3	-11	5	40	i
CCOc1ccc(N2CC(NC(=O)c3cccc4ccccc34)CC2=O)cc1 (centres undefined)	x	-11	6	2	x	x	-11	i
CCC(C)NS(=O)(=O)c1ccc(S(=O)(=O)N(CC(=O)Nc2ccccc2)Cc2ccco2)cc1 (centres undefined)	7	-68	4	-11	10	10	5	i
CC(C)c1nnc(NC(=O)CCC(=O)NCc2cccs2)s1	-20	-140	1	4	-1	1	x	i
COc1ccc(-c2cc(C(=O)N3CCN(S(=O)(=O)c4ccccc4)CC3)[nH]n2)cc1	1	-15	-4	-5	5	-10	x	i
CN(C(=O)c1cc2ccccc2o1)c1c(N)n(Cc2ccccc2)c(=O)[nH]c1=O	-33	-2	1	1	x	x	-2	x
NS(=O)(=O)c1cccc(NC(=O)Cn2cc(C(F)(F)F)cc(Cl)c2=O)c1	-6	5	2	3	-5	-2	-13	i
Cc1ccc(NC(=O)CN(C)C(=O)COC(=O)c2ccc(NC(=O)CC#N)cc2)cc1	x	-4	-3	1	x	x	-18	x
CCC/C(C#Cc1ccc(N(C)C)cc1)=C1/c2ccccc2C(=O)N1c1ccccc1	-22	-8	-128	-1	x	x	42	x
CCc1ccc(NC(=O)CN2CCC(C(=O)c3ccc(OC)cc3)CC2)cc1	1	-33	3	1	-1	-2	x	i
CS(=O)(=O)N(CC(=O)NCc1ccncc1)c1ccc(Cl)c(Cl)c1	-15	x	2	2	-3	-6	-8	i
Cc1ccccc1CN1[C@@H]2c3ccccc3C[C@@H]2OCCS1(=O)=O	-8	x	7	0	-1	-3	4	i
CC(=O)N1CCN(C(=O)c2ccccc2NS(=O)(=O)c2ccc(F)cc2)CC1	x	4	0	-1	x	x	-12	x
Cn1nc(C(=O)NC2CCCN(Cc3ccccc3F)C2)c2ccccc2c1=O (centres undefined)	10	11	2	0	6	60	2	i	eIF4H inh retest=0;PABP polyA inh retest=-9
Cc1ccc(-c2nc3ccccc3c(=O)n2NC(=O)COc2ccccc2)cc1	x	4	3	1	-5	11	-10	i
CCCC1Cc2c(sc(N)c2C#N)CO1 (centres undefined)	-21	-16	-6	-5	4	2	-4	i
CC(=O)C1=C(O)C(=O)N(c2ccc(S(N)(=O)=O)cc2)C1c1cccc([N+](=O)[O-])c1 (centres undefined)	-1	2	-4	3	-3	4	3	i
CCc1nc2c(oc3ccccc32)c(=O)[nH]1	-5	x	3	3	-1	-13	-12	i
O=C(c1cccnc1)N1CCN(c2ccc([N+](=O)[O-])cc2Cl)CC1	-13	21	7	4	-3	2	-8	i
Cc1cccc(-n2ccnc2CN2CCN(C3CCCC3)C(CCO)C2)c1 (centres undefined)	x	0	-2	2	-16	-1	-12	i
COc1ccc(C)cc1S(=O)(=O)N1CCC(C(=O)NCCc2ccccc2)CC1	x	12	6	3	-6	2	-15	i
COC(=O)c1cc(NC(=O)COC(=O)CN2C(=O)C3CC=CCC3C2=O)cc(C(=O)OC)c1 (centres undefined)	3	21	3	1	x	x	x	x
Cc1ccc(C(C)C)c(OCC(=O)NNC2=CC(=O)CC(C)(C)C2)c1	1	17	2	-4	-8	-4	-11	i
COc1ccc(NC(=O)CSc2nc3[nH]ncc3c(=O)[nH]2)c(OC)c1	x	x	2	0	x	x	-7	i
COC(=O)C1=C(C)Nc2nnnn2C1c1cccs1 (centres undefined)	-17	-17	1	7	0	-5	0	x
COc1ccccc1Nc1nnc(SCC(=O)N2CCCC2)s1	-1	x	6	1	-5	5	6	i

Next section; the last three above are carried over.
SMILES	Yeast UUG start	Env fusion inh	MT1-MMP act inh	MT1-MMP act inh RFP	PABP polyA inh	eIF4H inh	CSC inhib	Rce1 inhib	others
COc1ccc(NC(=O)CSc2nc3[nH]ncc3c(=O)[nH]2)c(OC)c1	x	x	2	0	x	x	-7	i
COC(=O)C1=C(C)Nc2nnnn2C1c1cccs1 (centres undefined)	-17	-17	1	7	0	-5	0	x
COc1ccccc1Nc1nnc(SCC(=O)N2CCCC2)s1	-1	x	6	1	-5	5	6	i
COC(=O)c1[nH]c2cc(C)ccc2c1NC(=O)CN1CCCc2ccccc21	-2	x	-11	6	3	-11	8	i
Cc1ccc(C(=O)Nc2ccc3c(c2)OCCO3)cc1S(=O)(=O)N1CCOCC1	-7	-20	-3	-3	x	x	-4	x
COC(=O)CSc1nnc(CNC(=O)c2ccc(S(=O)(=O)N3CCOCC3)cc2)n1C	x	5	2	-2	-6	4	-16	i
CSc1cccc(NC(=S)NC(=O)c2cccnc2)c1	-8	8	1	3	0	3	-9	i
COc1cc2c(cc1OC)CC(C(=O)NCc1ccccc1)NC2 (centres undefined)	-11	-8	1	-1	-7	8	0	i
CCc1cc2cc(C)ccc2nc1SCC(=O)NNC(=O)c1ccco1	-17	7	-2	0	5	-3	0	i
CC(OC(=O)CCCN=C1NS(=O)(=O)c2ccccc21)C(=O)Nc1ccccc1[N+](=O)[O-] (centres undefined)	-4	2	8	-4	x	x	-16	i
COc1ccc(C(=O)Nc2cccc3c2CCCC3)cc1OC	-14	-9	0	2	13	-6	-13	i
C[C@H](CO)N1C[C@H](C)[C@@H](CN(C)S(=O)(=O)c2cccc(F)c2)Oc2ncc(Br)cc2C1=O	-32&-4	-26	-3	2	x	x	x	x
CC(=O)N/N=C/c1cc(C(C)(C)C)cc(/C=N/NC(C)=O)c1O	-31	23	-129	-2	u	u	14	i
CN(C(=O)c1ccco1)c1nnc(C23CC4CC(CC(C4)C2)C3)s1	-10	-62	1	2	-12	2	22	i
CCN1C(=O)[C@H]2[C@@H](c3ccccc3)N3C(=O)N(c4cccc(F)c4)C(=O)[C@@]3(CC(C)C)[C@H]2C1=O	3	x	-1	2	5	-2	-2	i
N#Cc1ccsc1NC(=O)C1CCN(C(=O)c2ccc(Cl)cc2)CC1	x	-30	-1	-1	x	x	-15	i
Cc1ccc(NC(=O)COC(=O)CNC(=O)c2cccs2)cc1S(=O)(=O)N1CCOCC1	8	4	1	8	x	x	x	x
O=C(/C=C/c1cccc([N+](=O)[O-])c1)NCc1ccco1	-22	10	2	3	-2	7	-5	i
Cc1ccc(NCC(=O)N/N=C/c2cc3ccccc3nc2Cl)cc1	-11	-8	-17	3	15	23	-12	i
CC(C(=O)Nc1ccc(C#N)cc1)N(C)CC(=O)N(C)c1c(N)n(Cc2ccccc2)c(=O)[nH]c1=O (centres undefined)	-9	10	-2	3	x	x	x	x
O=C(CSc1ncccn1)N1CCCC1	-11	6	1	4	10	-6	-7	i
COc1ccc(C2C=C(C)Nc3nc4ccccc4n32)cc1 (centres undefined)	-6	-21	-4	0	-11	-2	13	i
COc1ccc(-c2nc(N)n(C(=O)Cc3ccccc3)n2)cc1	-15	-6	8	3	-3	-5	-6	x
O=C(c1c(Cl)cccc1Cl)N1CCCCCC1	-16	x	23	-3	-10	-7	-9	i
CC1(C)CC(=O)C=C(NC2CCCCCC2)C1	-7	-22	1	-1	-3	6	1	i
CC[n+]1ccc(/C=C/c2c[nH]c3ccccc23)cc1	4	u	-212	-22	u	u	12	i
Cc1ccc(/C(N)=N/OC(=O)c2cccc(Cn3cc(C(F)(F)F)ccc3=O)c2)cc1	x	-3	-2	-13	3	-8	7	i
COc1ccc(C(C)=O)cc1CSc1nnc(-c2ccc(Cl)cc2)n1-c1ccccc1	5	-29	-10	-10	-5	-7	2	i
Cc1nnc(SCc2nc(N)nc(Nc3ccccc3)n2)s1	-20	-4	-2	3	-4	-5	6	i
COc1cccc(CNc2cccc3cccnc23)c1O	-17	-26	-4	4	23	30	12	i
CC(C)(C)C(=O)Nc1nnc([C@H]2C[C@H](O)[C@@H](CO)O2)s1	-7	-3	-1	1	x	x	x	x
C/C(=N/NS(=O)(=O)c1ccc(C)cc1)c1c[nH]c2ccccc12	-11	-9	2	3	-9	-9	-15	i
Cc1cc(C)n(-c2nnc(C)n2NS(C)(=O)=O)n1	-13	1	-2	-3	7	-8	-11	i

An excerpt; rates above refer to the full screens.
